Screening data (PubChem BioAssay)
miR-21 FLuc = qHTS Assay for Modulators of miRNAs and/orActivators of miR-21 | Potency, µM (highest dose often 38.3 µM), without a hit: top-dose reporter change, positive = more light | HeLa miR-21 FLuc reporter, luciferase, 48 h | 340,000 tested, under 10 active; active = well fitted rising curve with a large enough effect; inconclusive = small, poorly fitted or top-dose-only effect; inactive = no such curve, though single readings can be large or run the other way;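 further: % of control where 0% means no effect; miR-21 action dims this reporter so a rising signal means less miR-21 action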
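HeLa cells endogenously expressing miR-21, stably carrying CMV-driven firefly luciferase with a downstream miR-21 binding site, 2000 cells/well. Titrations up to approximately 40 uM, 48 hours; luciferase luminescence read.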
Rango-impB inh = qHTS Assay for Inhibitors of Rango (Ran-regulated importin-beta cargo) - Importin beta complex formation; Importin subunit beta-1 (Homo sapiens), Q14974; Rango CFP/YFP FRET sensor + importin beta, 45 min; Potency, µM (highest dose often 92.2 µM), for the others: top-dose inhibition of complex formation; actives 0.031% (n = 340,000); active = rising FRET ratio curve, often small or poorly fitted; inconclusive = mostly compound fluorescence or quenching in the first reads; inactive = flat curves in all reads;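 further: potency means the concentration at half of the fitted maximal effect; 0% = DMSO wells and 100% = buffer wells lacking importin beta; nearly all actives have a fitted effect of over 15% in size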
Target sequence (Q14974 whole entry, looked up): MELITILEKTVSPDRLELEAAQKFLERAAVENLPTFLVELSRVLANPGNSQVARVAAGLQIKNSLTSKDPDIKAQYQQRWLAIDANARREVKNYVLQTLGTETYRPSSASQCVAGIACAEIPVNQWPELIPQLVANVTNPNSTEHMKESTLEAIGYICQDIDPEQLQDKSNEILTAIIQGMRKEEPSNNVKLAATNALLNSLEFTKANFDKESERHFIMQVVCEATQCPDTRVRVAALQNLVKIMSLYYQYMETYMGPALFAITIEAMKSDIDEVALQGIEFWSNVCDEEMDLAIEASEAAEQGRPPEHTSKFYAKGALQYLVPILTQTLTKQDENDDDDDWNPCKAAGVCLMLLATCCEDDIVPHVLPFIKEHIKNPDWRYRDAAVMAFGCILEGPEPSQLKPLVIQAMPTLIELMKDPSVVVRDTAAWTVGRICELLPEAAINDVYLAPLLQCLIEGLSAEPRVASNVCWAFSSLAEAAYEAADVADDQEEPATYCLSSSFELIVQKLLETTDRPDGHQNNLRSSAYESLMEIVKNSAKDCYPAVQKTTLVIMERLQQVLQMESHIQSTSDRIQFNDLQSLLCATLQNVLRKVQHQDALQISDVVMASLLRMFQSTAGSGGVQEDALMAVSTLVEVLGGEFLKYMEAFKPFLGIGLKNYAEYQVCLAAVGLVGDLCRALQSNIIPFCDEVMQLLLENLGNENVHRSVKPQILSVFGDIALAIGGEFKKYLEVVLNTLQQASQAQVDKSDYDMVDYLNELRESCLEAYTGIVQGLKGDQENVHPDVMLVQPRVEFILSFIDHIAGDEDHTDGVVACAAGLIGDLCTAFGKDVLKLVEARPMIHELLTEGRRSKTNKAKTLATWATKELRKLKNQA
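FRET biosensor Rango (snurportin 1 IBB between N-terminal EYFP and C-terminal Cerulean), 50 nM in PBS/1 mM DTT/0.02% Tween-20/0.1% BSA, preincubated 5 min RT with compound; 0.125 microM importin beta added, 45 min RT, CFP/YFP FRET ratio read.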
GLA inh pH 4.5 = qHTS Assay for Inhibitors of Human alpha-Galactosidase at pH 4.5. Alpha-galactosidase A (Homo sapiens), P06280. purified enzyme, 4-MU-alpha-Gal fluorescence, pH 4.5. activity change, negative = inhibition, % at 105 µM. 230,000 tested, under 10 active. AID 1467, 2008; inconclusive = small, poorly fitted or top-dose-only inhibition, or a rising curve; inactive = flat fitted curve, though single readings scatter; no compound was filed as active;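 further: 0% = full activity with enzyme and -100% = basal without enzyme; dose as in the result columns while the protocol names 77 µM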
Rango release inh = qHTS Assay for Inhibitors of RanGTP induced Rango (Ran-regulated importin-beta cargo) - Importin beta complex dissociation. actives 0.071% (n = 340,000). Potency, µM (titrated, usually from 46.1 µM), for the others: at the top dose activity change, negative = inhibition. AID 540253, 2011. Biochemical FRET Rango-importin beta, RanGTP-induced dissociation. Snurportin-1 (Homo sapiens) + GTP-binding nuclear protein Ran (Homo sapiens) + Importin …; active means falling FRET ratio curve, often poorly fitted, with flat reads before Ran was added; inconclusive means other falling curves, or compound fluorescence or quenching; inactive means flat or rising ratio curve;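 further: potency means the concentration at half of the fitted maximal effect; % of control where 0% means no effect; nearly all actives have a fitted effect of over 45% in size; -100% = wells without RanGTP and RCC1; the record marks most hits as doubtful in a second field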
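Rango (0.1 uM)–importin beta (0.25 uM) complex; RanGTP-RCC1 trigger; 45 min RT; CFP/YFP FRET read.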
An asterisk follows results filed as active; ? = inconclusive; · = not tested or not shown; & = joins results of further samples; [ ] = dose if it differs, or a comment. The list is partial, so the mix of outcomes need not match the whole.

cpd	molecule	GLA inh pH 4.5	Rango release inh	Rango-impB inh	miR-21 FLuc
1	O=C1/C(=C/c2cccnc2)Oc2cc(OS(=O)(=O)c3ccccc3)ccc21	-4	-4%	-2.7%	-10%
2	O=c1nc(/C=C/c2ccc(O)c(O)c2)oc2ccccc12	-18	-27%	0.0%	-38%
3	COc1cc2nc(NCC3CCCO3)n3nc(-c4cccnc4)nc3c2cc1OC (centres undefined)	7	-1%	8.4%	4%
4	CC(C)C[C@@]12C(=O)N(c3cccc(Cl)c3)C(=O)N1[C@H](c1ccc(Cl)cc1)[C@@H]1C(=O)N(C3CCCCC3)C(=O)[C@@H]12	·	-1%	-2.4%	·
5	CC(C)COP(=O)(OCC(C)C)C(Nc1ccccc1)c1ccc2c(c1)OCO2 (centres undefined)	-3	10%	2.0%	13%
6	O=C(NCC1CCCO1)C1CC(=O)N(c2cccc(Cl)c2)C1 (centres undefined)	·	3%	1.0%	0%
7	OC(COCc1ccc(Cl)cc1)CN1CCN(c2ccccn2)CC1 (centres undefined)	10	13%	-1.5%	-10%
8	O=C(CCc1nc(-c2ccc(Cl)cc2)no1)NC1CCCCC1	·	16%	-0.1%	0%
9	COc1ccc(CCNC(=O)C(NS(=O)(=O)c2ccc3c(c2)CCN3C(C)=O)C(C)C)cc1OC (centres undefined)	7[21.1 µM]	·	·	-2%
10	COC(=O)C[C@H](NC(=O)Cn1cnc2c(NCc3ccccc3)ncnc21)C(=O)OC	·	-25%	-2.6%	·
11	O=C(NCCN1CCCCC1)c1cccc2c1C(=O)c1ccc(N3CCCC3)cc1S2(=O)=O	·	?	?	·
12	CSc1cccc(NC(=O)CSc2nc3ccccc3o2)c1	-7	29%	?	-28%
13	COc1cccc(CNC(=O)c2cccc(NC3=NC4CS(=O)(=O)CC4S3)c2)c1 (centres undefined)	·	5%	1.0%	2%
14	CCn1c(SCC(=O)NCc2cccs2)nc2c1c(=O)n(C)c(=O)n2C	7	-2%	3.7%	0%
15	COc1cc(NC(=O)c2sc3nc(C)nc(N4CCOCC4)c3c2C)cc(OC)c1OC	·	0%	3.5%	2%
16	N=C1C(c2ccccc2)=C(O)CN1CCCO	·	-12%	-1.2%	4%
17	CCOc1ccc(C2=Nn3c(nnc3-c3ccccn3)SC2)cc1	7	1%	6.2%	3%
18	CCN(CC)CCN1C(=O)Cn2c(C)c(C)c3cccc1c32	-5&2	7%&-18%	-1.7%&6.4%	1%&-5%
19	O=C(C1CCCO1)N(c1ccc(F)cc1)C1C=CS(=O)(=O)C1 (centres undefined)	0	-5%	-3.1%	6%
20	COc1ccc(CN(C)CC(=O)NC(=O)Nc2ccccc2F)cc1	·	-1%	0.3%	·
21	Cc1ccc(C)c(OCC(=O)NCC(c2ccco2)N2CCCCC2)c1 (centres undefined)	·	-1%	0.8%	·
22	CCCN(C(=O)c1ccc(OCC(C)C)cc1)c1c(N)n(Cc2ccccc2)c(=O)[nH]c1=O	·	-25%	-3.9%	·
23	COC(=O)CCCC1=CC2=CC(=O)C(C)(OC(=O)c3cccs3)C(=O)C2=CN1c1ccc(OC)cc1 (centres undefined)	11&-12	-19%	?	-2%
24	COc1ccc(CNc2nc3c(c(C(F)(F)F)n2)CCCCC3)cc1	-1	·	·	4%
25	COc1cc(OC)cc(C(=O)N[C@H](C(=O)OCC(N)=O)C(C)C)c1	-6	7%	-0.4%	-4%
26	COc1ccc(C(=O)Nc2cccc3c2C(=O)NC3=O)cc1S(=O)(=O)N1CCOCC1	-5	?	?	-5%
27	CCN(CC)CCOC(=O)c1ccc(NC(=O)C2(c3ccccc3)CCCC2)cc1	-6	-19%	-4.2%	-6%
28	CNc1nc(-c2ccccc2)cc(C)c1S(C)(=O)=O	10	0%	0.4%	-32%
29	COc1ccc(C(=O)Nc2ccc(NC(C)=O)cc2)cc1S(=O)(=O)N(C)Cc1ccccc1	·	0%	-2.4%	·
30	O=C(Nc1nnc(SCc2ccccn2)s1)C1CC(=O)N(c2ccccc2)C1 (centres undefined)	5	-8%	-1.1%	-1%
31	COCCNC(=O)Cn1nc(-c2ccccc2OC)ccc1=O	3	16%	2.3%	-1%
32	CCn1cc(C(=O)OCc2ccc(F)cc2)c(=O)c2ccc(C)nc21	3	-13%	-5.3%	-1%
33	CC(=O)c1ccc(NC(=O)c2ccc3nc(-c4ccco4)c(-c4ccco4)nc3c2)cc1	-6	?	?	11%
34	O=S(=O)(c1ccccc1)C1CC1(c1ccccc1)c1ccccc1 (centres undefined)	·	1%	-0.9%	·
35	Cc1sc2ncn(CC(=O)Nc3cccc(S(N)(=O)=O)c3)c(=O)c2c1-c1ccccc1	-28	-11%	0.3%	17%
36	Cc1ccc(S(=O)(=O)CCC(=O)Nc2nccs2)cc1	8	0%	-0.5%	6%
37	CC(C)NC(=O)NC(=O)CSc1ccc(S(=O)(=O)N2CCOCC2)cn1	·	37%	0.8%	·
38	O=C(C1COc2ccccc2O1)N1CCOCC1 (centres undefined)	-1	-4%	-2.1%	-2%
39	OC(c1cc(C(F)(F)F)nc2c(C(F)(F)F)cccc12)C1CCCCN1 (centres undefined)	-9	-28%	4.7%	·
40	COc1ccc(N2CCN(C3CCCN(C(=O)C4=C(C)OCCO4)C3)CC2)cc1 (centres undefined)	·	2%	-4.3%	-1%
41	CC(C)CNC(=S)NNC(=O)c1nn(C)cc1Cl	5	2%	2.3%	-3%
42	O=C(NCc1ccccc1)C(c1c(F)cccc1Cl)N(C(=O)c1csnn1)C1CC1 (centres undefined)	·	-1%	0.1%	3%
43	CCOC(=O)Cc1csc(N/N=C/c2ccccc2)n1	-10	-4%	-4.0%	14%
44	O=C(O)CCC(C(=O)O)n1c(O)c(C2=c3ccccc3=NC2=O)sc1=S (centres undefined)	-9	-8%	-0.3%	-2%
45	CCCOc1ccccc1C(=O)NC(CO)C(=O)O (centres undefined)	7	15%	2.3%	1%
46	CC1Cc2nc(SCC(=O)NCC3CCCO3)n(-c3ccc(F)cc3)c(=O)c2S1 (centres undefined)	·	0%	-0.1%	-1%
47	O=C(NC1CCCc2ccccc21)C1CCN(c2nnc(-n3cccc3)s2)CC1 (centres undefined)	5	-2%	-6.8%	-1%
48	CCC(C)n1c(SC(C)C#N)nc2ccccc2c1=O (centres undefined)	3	-17%	-0.8%	-26%
49	Cc1ccc(C)c(NC(=O)COC(=O)c2nc(Cl)ccc2Cl)c1	·	-2%	?	·
50	O=C(CSc1nnnn1-c1cccc2c1CCCC2)NC1CCCC1	-3	0%	0.0%	-4%

The listing continues.
cpd	molecule	GLA inh pH 4.5	Rango release inh	Rango-impB inh	miR-21 FLuc
51	CC(/C=C/c1ccc2c(c1)OCO2)=N/NC(=O)CNc1ccc(C)cc1	·	-2%	5.5%	·
52	COc1ccc(C)cc1NC(=O)CCNS(=O)(=O)c1cccc2nonc12	·	-10%	-3.2%	1%&-1%
53	O=C(O)c1ccccc1C(=O)N(c1ccccc1)c1ccccc1	·	-5%	-0.3%	·
54	O=C(CO/N=C/c1ccccc1Cl)N1CCCc2ccccc21	-6	-1%	-3.6%	-13%
55	Cc1[nH]nc2c1C1(CCN(Cc3ccccc3)CC1)C(C#N)=C(N)O2	-11	?	?	0%
56	COc1cc(C2CC(=O)Oc3cc(C)c(Cl)c(C)c32)cc(OC)c1OC (centres undefined)	·	21%	?	·
57	Cc1cc(C)nc(SCc2ccc(C(=O)N/N=C3\CC(C)CC(C)(C)C3)cc2)n1 (centres undefined)	-3	-8%	-1.1%	-4%
58	COc1ccc(S(=O)(=O)Nc2ccc(-n3cccc3)cc2)cc1	-1	5%	3.0%	2%
59	Cc1ccc(-n2nc(C(=O)c3ccccc3)n3c(=O)c(Cc4ccccc4)nnc23)cc1	·	2%	-0.3%	·
60	Cc1occc1-c1nnc(SCC(=O)Nc2nc3ccccc3s2)o1	2	0%	-0.4%	-19%
61	COc1ccc(/C=C/C(=O)N2CCN(c3ccccn3)CC2)c(OC)c1OC	·	-9%	1.2%	-1%
62	CCCn1c(-c2ccccc2)nc2c(=O)n(C)c(=O)[nH]c21	6	-3%	2.6%	1%
63	COc1c(Cl)cc(Cl)cc1C(=O)Nc1ccc(CN2CCCCC2)cc1	4	?	-1.3%	-3%
64	CCCc1nn(C)c2c(=O)[nH]c(-c3cc(S(N)(=O)=O)ccc3OCC)nc12	·	8%	0.0%	7%
65	CCOC(=O)c1ccc2nc(C)c(CC)c(Cl)c2c1	-9	1%	-0.9%	-7%
66	Cn1c(C(O)c2ccccc2)nc(Cl)c1Cl (centres undefined)	2	13%	5.0%	-6%
67	CCOc1ccc(S(=O)(=O)Nc2cccc(C(=O)NCC(c3ccco3)N(C)C)c2)cc1 (centres undefined)	·	22%	-4.5%	·
68	CCOC(=O)N1CCN(C(=O)CCNS(=O)(=O)c2ccc3c(c2)c(=O)n(C)c(=O)n3C)CC1	6	8%	2.3%	0%
69	COC(=O)C(C)Sc1nc2c([nH]c3ccccc32)c(=O)n1C (centres undefined)	-1	1%	5.6%	-1%
70	CCOCCCN1CN(Cc2ccco2)CNC1=S	1	-3%	-0.1%	-1%
71	COc1cccc(-c2ncc3ccccc3c2COC(=O)c2cccc(Br)c2)c1	·	-7%	0.6%	·
72	Cc1ccccc1NC(=S)N(C)C1(c2ccccc2Cl)CCCCC1=O (centres undefined)	1	10%	-0.1%	-2%
73	CC(Sc1n[nH]c(N)n1)C(=O)Nc1ccc(Cl)cn1 (centres undefined)	-1	49%	3.2%	4%
74	CCCCn1c(N)c(N(CC(C)C)C(=O)c2cccc(S(=O)(=O)N3CCCCCC3)c2)c(=O)[nH]c1=O	·	3%	1.5%	1%
75	Cc1cccc(OCc2nc(-c3ccc(Br)o3)no2)c1	-9	3%	-0.2%	-25%

Taken from above:
Entry of #65 in Rango release inh: 1%
Entry of #59 in Rango-impB inh: -0.3%
Entry of #67 in Rango release inh: 22%

(next part)
cpd	molecule	GLA inh pH 4.5	Rango release inh	Rango-impB inh	miR-21 FLuc
76	O=C(COc1ccccc1)Nc1ccccc1N1CCN(c2ccc(F)cc2)CC1	10	-10%	-0.6%	-4%
77	CC(C)CN(C(=O)CSc1nncn1-c1ccccc1)c1c(N)n(CC(C)C)c(=O)[nH]c1=O	0	0%	0.2%	-1%
78	CCOc1ccc(S(=O)(=O)N2CCOCC2)cc1NC(=O)c1ccccc1F	·	-1%	0.6%	0%
79	Cc1cccc(C(=O)Nc2ccccc2N2CCN(c3ccc(F)cc3)CC2)c1	0	39%	-0.9%	-2%
80	Cc1cccc(C)c1NS(=O)(=O)c1ccc2c(c1)C(=O)c1ccccc1C2=O	1	2%	-0.2%	-9%
81	O=C(Nc1ccccc1C(=O)Nc1ccccc1C(=O)NCc1ccco1)c1ccco1	-7	-5%	?	-1%
82	Cc1cc(NC(=O)c2cc(-c3cccnc3)nc3c(C)c(C)ccc23)no1	-3	3%	-4.0%	14%
83	CCCCc1ccc(NC(=O)CC(C)(C)C)cc1	7	2%	-0.4%	-39%
84	CC(C)(C)n1ncc2c(=O)n(Cc3ccc(Cl)c(Cl)c3)cnc21	4	21%	-3.5%	1%

Five entries from above, ordered by their value in GLA inh pH 4.5, rising.
cpd	molecule	GLA inh pH 4.5	Rango release inh	Rango-impB inh	miR-21 FLuc
43	CCOC(=O)Cc1csc(N/N=C/c2ccccc2)n1	-10	-4%	-4.0%	14%
44	O=C(O)CCC(C(=O)O)n1c(O)c(C2=c3ccccc3=NC2=O)sc1=S (centres undefined)	-9	-8%	-0.3%	-2%
24	COc1ccc(CNc2nc3c(c(C(F)(F)F)n2)CCCCC3)cc1	-1	·	·	4%
80	Cc1cccc(C)c1NS(=O)(=O)c1ccc2c(c1)C(=O)c1ccccc1C2=O	1	2%	-0.2%	-9%
45	CCCOc1ccccc1C(=O)NC(CO)C(=O)O (centres undefined)	7	15%	2.3%	1%
